High-throughput results as filed in PubChem.
Tg IFNy HTS: T. gondii growth inhibition with IFN-gamma, primary screen, cell-based | Toxoplasma gondii growth in IFN-gamma-treated host cells; hits give low values; reference of the scale not given here | activity change, negative = inhibition, %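 (about 20 µM by stock and volumes)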 | 69,000 tested, 3.8% active | AID 1259416, 2018;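 active = below -70%; inconclusive = fit judged invalid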;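 also: host cells are HeLa cells infected with Toxoplasma gondii; parasite growth read as luciferase light; one replicate is shown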
* hit, by the source's call; i = inactive; u = inconclusive. Not all compounds are listed. The share of hits here may be higher or lower than overall.

| Compound | Tg IFNy HTS |
| --- | --- |
| COc1ccc(-c2nc(-c3noc4ccc(C(=O)N5CCCN(C)CC5)cc34)co2)cc1 | 0 |
| Cc1ccc(-c2ccc(C(=O)NCCCn3ccnc3C(C)C)cn2)cc1 | -12 |
| COc1cccc(C(=O)NCCc2sc(-c3ccc(Cl)cc3)nc2C)c1 | -38 |
| COc1ccc(-c2nc(C)c(CCNC(=O)c3cccc(C(F)(F)F)c3)s2)cc1OC | i |
| CCS(=O)(=O)N1CCC2(CC1)OC(=O)C(C)=C2C(=O)Nc1ccccc1Br | 16 |
| CCOC(=O)CSc1nnc(CSc2nc3sc(C)c(C)c3c(=O)[nH]2)n1C | -28 |
| Cc1noc(C)c1CN1CC2(CCN(C(=O)CO)C2)CC1=O (stereo not drawn) | 19 |
| S=C1NC2(CCCCC2)NN1c1ccccc1 | i |
| CCCN(Cc1ccncc1)C(=O)c1n[nH]c2c1CC(C)CC2 (stereo not drawn) | 51 |
| CS(=O)(=O)N1CCCc2ccc(NC(=O)Cc3cccc4cccnc34)cc21 | -4 |
| CCc1ccc(NC(=O)C(=O)NCCc2sc(-c3ccc(OC)c(OC)c3)nc2C)cc1 | 27 |
| Cc1noc(C[C@@H]2C[C@@H]3CN(S(=O)(=O)N(C)C)C[C@@H]3O2)n1 | 1 |
| CC(=O)Nc1cc(OC(C)=O)c2nonc2c1OC(C)=O | -75* |
| CCNC(=S)N1CCN(CCN2C(=O)c3cccc4cccc(c34)C2=O)CC1 | -13 |
| C[C@H]1CC(=O)N[C@@H](c2ccccc2)C/C=C\C[C@H](c2ccc3c(c2)OCO3)NC1=O | -11 |
| O=C(NCCc1csc(-c2ccccc2)n1)C1CCN(S(=O)(=O)c2cccc(Cl)c2)CC1 | 1 |

Single entries from the results shown:
Tg IFNy HTS result of `Cc1noc(C[C@@H]2C[C@@H]3CN(S(=O)(=O)N(C)C)C[C@@H]3O2)n1` stands at 1
Tg IFNy HTS result of `CCc1ccc(NC(=O)C(=O)NCCc2sc(-c3ccc(OC)c(OC)c3)nc2C)cc1` stands at 27
Tg IFNy HTS result of `C[C@H]1CC(=O)N[C@@H](c2ccccc2)C/C=C\C[C@H](c2ccc3c(c2)OCO3)NC1=O` stands at -11
Tg IFNy HTS result of `CC(=O)Nc1cc(OC(C)=O)c2nonc2c1OC(C)=O` stands at -75*

The list continues.
| Compound | Tg IFNy HTS |
| --- | --- |
| CC(=O)N1[C@H](CO)[C@@H](c2ccccc2)[C@@H]1CNC(=O)CN1CCOCC1 | -17 |
| CCn1cc(-c2c(-c3ccccc3)ncn2CC(C)Oc2cccnc2)cn1 (stereo not drawn) | -15 |
| Cn1cc(CN2CCC3(CC2)CN(Cc2cccnc2)C(=O)CO3)cn1 | 0 |
| COc1ccc2c3c([nH]c2c1)[C@H](CO)NCC31CCN(C(=O)Cc2cccnc2)CC1 | -38 |
| CO[C@H]1CC[C@@H]2CCOc3c(C#N)cccc3C(=O)N(C)CCCC(=O)N(C)C[C@H]1O2 | 7 |
| CCCCSCc1cc(C(=O)N2C[C@H]3C[C@H](O)[C@@H](O)C[C@H]3C2)oc1C | -6 |
| CCCNC(=O)N1CC2(CCN(S(=O)(=O)c3ccccc3)CC2)c2c(n(C)c3cc(OC)ccc23)[C@@H]1CO | -40 |
| O=C1CCC2(CCN1)CCN(c1ncccc1Cl)CC2 | -3 |
| CCCS(=O)(=O)NCC1COCc2c(C)nnn2C1 (stereo not drawn) | 52 |
| C[C@H](CO)N1C[C@H](C)[C@H](CN(C)C(=O)c2ccccc2)Oc2ncc(C#Cc3ccccc3)cc2C1=O | u |
| CC(C)Nc1nc2c(cc1C(=O)NCC1CC1)CCN(c1ncccn1)CC2 | -9 |
| Cc1ccc(-c2cnc(NC(=O)c3ccc4c(c3)ncn4C)n2C)cc1C | 1 |
| CNc1ccccc1C(=O)N1CCCN(C(=O)COC)CC1 | -5 |
| O=C(Cc1cccc(F)c1)N1CCC(Cn2nnn(-c3cccs3)c2=O)CC1 | -19 |
| Nc1ccc(C(=O)OCCCc2nc3ccccc3[nH]2)cc1 | 10 |
| O=C(NCCCN1CCc2ccccc2C1)c1nc(Nc2ccc(F)cc2)c2ccccc2n1 | -9 |
| O=C(c1ccncc1)N1CCCC(c2nc(-c3cccnc3)no2)C1 (stereo not drawn) | -8 |
| Cc1ccc(CN(CCCn2ccnc2)Cc2ccnc(N3CCOCC3)n2)o1 | 4 |
| CC1=C(C(=O)N2CCC(CCN3CCCC3=O)CC2)C(C)NC(=O)N1 (stereo not drawn) | -3 |
| CCCNC(=O)C1Cc2nc(-c3cccc(OC)c3)sc2N1CC1CC1 (stereo not drawn) | -67 |
| Cc1oc(-c2cccc(F)c2F)nc1CN(CCO)CC12CC3CC(CC(C3)C1)C2 | 0 |
| CC1(C)[C@]2(C(=O)NCCCc3nc4ccccc4o3)CC[C@@]1(C)OC2=O | 4 |
| COc1ccc(CNC(=O)CN2CCC3(CC2)N=C(c2ccc(C)c(C)c2)C(=O)N3)cc1 | 20 |
| CCN1C(=O)N(Cc2cccc(OC)c2)C(=O)C12CCN(Cc1ccc3c(c1)CCCN3C)CC2 | 12 |
| COc1ccc(CNC(=O)CCC2N=C3c4ccccc4N=C(SCc4cccc(F)c4)N3C2=O)cc1 (stereo not drawn) | -24 |
| COc1ccccc1C(=O)Nc1cc2cc(Br)ccc2oc1=O | 13 |
| CCc1onc(C)c1C1CCCN1Cc1cn(CC(=O)OC)c2ccc(OC)cc12 (stereo not drawn) | 1 |
| COC(=O)c1ccc(S(=O)(=O)N2CCC(c3nc4ccccc4s3)CC2)cc1 | 30 |
| CCN(CC)S(=O)(=O)c1ccc2oc3ccc(S(=O)(=O)N(CC)CC)cc3c2c1 | -8 |
| O=C(c1ccsc1)N1CCCC2(C1)Nc1cccnc1NC2=NC1CCCC1 (stereo not drawn) | 70 |
| CC(C)c1noc(C2CCCN(C3CCC4(CCNCC4)CC3)C2)n1 (stereo not drawn) | -6 |
| O=CNC1CCCc2c1[nH]c1ccc(Cl)cc21 (stereo not drawn) | -81* |
| CS(=O)(=O)NC1CCc2c(ccc(=O)n2CCn2cccn2)C1 (stereo not drawn) | 3 |
| CCc1ccc(S(=O)(=O)N2Cc3c(CN4CCCCC4)nn(C)c3C2)cc1 | 3 |
| CC(=O)N1CCOC2CCN(C(=O)Cc3cccnc3)CCC21 (stereo not drawn) | -43 |
| C=CCNc1ccccc1C(=O)NCc1nc(C)c2c(n1)CCCC2 | 27 |
| O=C(Nc1cccc(-c2nc3ncccc3o2)c1)c1ccccc1 | 9 |
| CCN1C(=O)CCCC12CCCN(C(=O)CCc1ccccc1)C2 (stereo not drawn) | 9 |
| C=C(C)COc1cccc(CN2CCNC(=O)C2)c1 | -47 |
| COc1ccc(CC(=O)Nc2nnc(COc3ccc(Cl)cc3)s2)cc1OC | -10 |
| COc1nc2ccccc2cc1-c1cccc(OC(C)C(N)=O)c1 (stereo not drawn) | 118 |
| COc1ccc(CN2CCCC2)cc1Oc1cc(C(F)(F)F)cc(C)n1 | -5 |
| CC(=O)NC1(c2ccccc2F)CCN(CC(=O)N(C)C2CCCCC2)CC1 | 9 |
| CCCCc1ncc(CN2CC[C@H](O)C[C@@H]2C(=O)O)[nH]1 | -49 |
| CN(Cc1nccn1C)C(=O)c1cccc(NCc2cccs2)c1 | 32 |
| CC(=O)Nc1ccc(-c2cn(C(C)Cn3nc(C)cc3C)nn2)cc1 (stereo not drawn) | 4 |
| Cc1ccc(CN2CCC3(CC2)CCN3CC(=O)N(C)C)s1 | -30 |
| Cc1noc(C)c1C(=O)NC1CCC2(CCC(=O)N2CC(C)C)CC1 (stereo not drawn) | 56 |

Some of these compounds in order of SMILES length, ascending.
| Compound | Tg IFNy HTS |
| --- | --- |
| C=C(C)COc1cccc(CN2CCNC(=O)C2)c1 | -47 |
| CN(Cc1nccn1C)C(=O)c1cccc(NCc2cccs2)c1 | 32 |
| COc1nc2ccccc2cc1-c1cccc(OC(C)C(N)=O)c1 (stereo not drawn) | 118 |
| COc1ccc(CN2CCCC2)cc1Oc1cc(C(F)(F)F)cc(C)n1 | -5 |
| Cc1noc(C)c1C(=O)NC1CCC2(CCC(=O)N2CC(C)C)CC1 (stereo not drawn) | 56 |
| COc1ccc(CC(=O)Nc2nnc(COc3ccc(Cl)cc3)s2)cc1OC | -10 |
| CC(=O)NC1(c2ccccc2F)CCN(CC(=O)N(C)C2CCCCC2)CC1 | 9 |

(cont.)
| Compound | Tg IFNy HTS |
| --- | --- |
| C=CCn1c2ccccc2c2cc(-c3ccc4c(c3)c3ccccc3n4CC=C)ccc21 | 69 |
| N#C[C@H]1[C@H](c2ccc(-c3cccc(F)c3)cc2)[C@H](CO)N1C(=O)CN1CCOCC1 | 12 |
| Cc1ccc(S(=O)(=O)N=Nc2c(O)[nH]c3ccccc23)cc1 | 31 |
| C[C@@H]1CCCCO[C@@H](CN(C)C(=O)CCCN(C)C)[C@H](C)CN([C@@H](C)CO)C(=O)c2cc(NC(=O)Nc3ccc4c(c3)OCO4)ccc2O1 | 245 |
| OCc1nc2ccccc2n1CCCc1ccccc1 | -25 |
| OCCN1CCC2(CC1)CC(NC1CCOCC1)c1ccccc12 (stereo not drawn) | 3 |
| COCC1CN(Cc2c(C)noc2C)Cc2ncn(CC3CC3)c21 (stereo not drawn) | 1 |
| O=C(O)C1C2C=CC(O2)C1C(=O)N1CCOCC1 (stereo not drawn) | 15 |

Later entries.
SMILES,Tg IFNy HTS
O=C(CSc1nc2ccccc2o1)Nc1nnc(SCc2ccccc2)s1,48
COc1cccc(-n2cc(CN(C)Cc3cc(C)c(C)o3)cn2)c1,49
Cc1ccccc1-n1cc(CN(C)C(=O)CN2CC(=O)NC2=O)cn1,-1
CC(=O)N1CCC(C(=O)NCc2ccccc2)(N(C(=O)c2ccc(C)cc2)c2ccc(C)cc2C)CC1,-55
O=C(NCc1cccc(Cl)c1)c1c(O)c2cccnc2n(-c2ccccc2)c1=O,-83*
COc1cc(N2CC[C@@H]3[C@H]2CCN3Cc2cccnc2OC)ncn1,-2
Cc1cc(CC(=O)NCc2cnc3c(C)cccn23)on1,4
CCCCNC(=O)c1nc(Nc2ccc(F)cc2)c2ccccc2n1,-27
Cc1ccc(Oc2ncccc2CNC(=O)Cn2nc(C)c(C)c2C)cn1,-16
COC(=O)[C@@H]1C[C@@H](N(C)C)CN1Cc1cccc(Cn2cccn2)c1,-10
CC(C)CN1C(=O)N(Cc2ccccn2)C(=O)C12CCN(Cc1ccc(CO)o1)CC2,5
C[C@@H]1CN([C@@H](C)CO)C(=O)c2cc(C#CC3(O)CCCC3)cnc2O[C@H]1CN(C)S(=O)(=O)c1cccc(F)c1,-51
CN1CC2(CCN(C(=O)c3cn(CCN4CCNCC4)nn3)C2)OC1=O (stereo not drawn),-6
C=CCn1cc(CN2CCN(c3cc(N4CCCC4)nc(N)n3)CC2)cn1,-2
O=C(O)[C@H]1C[C@@H](C(=O)NC2CC2)CN(C(=O)c2cccc(Cl)c2Cl)C1,-8
Cc1cccc(CN2CCOC(CCCC(C)C)C2)n1 (stereo not drawn),-9
CC(C)c1cccc(-c2cc(NCc3cccnc3)nc3[nH]ccc23)n1,-26
CCC(=O)N1C[C@@H](O)COC[C@@H]2O[C@H](CC(=O)NC)CC[C@H]21,-14
O=C(NCCc1csc(-c2ccc(Cl)cc2)n1)c1c(F)cccc1F,-4
COC(=O)[C@H]1[C@H](CO)[C@H]2Cn3c(ccc(C4=CCCC4)c3=O)[C@H]2N1C(=O)Cc1cccnc1,-5

Given as labelled records: part of the list above.
CC(C)c1cccc(-c2cc(NCc3cccnc3)nc3[nH]ccc23)n1
  Tg IFNy HTS: -26

CCC(=O)N1C[C@@H](O)COC[C@@H]2O[C@H](CC(=O)NC)CC[C@H]21
  Tg IFNy HTS: -14

Carrying on:
SMILES,Tg IFNy HTS
O=C(C[C@@H]1CC[C@H]2[C@@H](COC[C@@H](O)CN2Cc2cccc(Cl)c2)O1)NCc1cccc(F)c1,-49
CC(C)(C)CC(=O)NCCc1csc(-c2cccc(F)c2)n1,13
Cn1c(-c2ccc(-c3nccn3CCn3cccn3)o2)nc2ccccc21,7
Cc1ccc(CN2CCC(N3CCOCC3)CC2C(=O)O)o1 (stereo not drawn),15
COc1cccc(CNC(=O)CN2CCC3(CC2)N=C(c2ccc(C)c(C)c2)C(=O)N3)c1,-11
CCN1CCN(C(=O)c2ccc(=O)n(C)c2)C(Cc2cccc(-c3cccs3)c2)C1=O (stereo not drawn),9
Cc1ccc(CN2CC[C@@H]3CO[C@H](CNC(=O)C4CC4)[C@@H]3C2)o1,-1
Cc1noc(C)c1NC(=O)Nc1ccc2c(c1)C(=O)N(C)[C@@H]1CC[C@@H](CC(=O)N[C@@H]3CCN(Cc4ccccc4)C3)O[C@@H]1CO2,2
Cc1ccc(CN2CCC3(CC2)N=C(c2cccc(F)c2)C(=O)N3)c(C)c1,-15
COc1cc(NC(=O)Nc2ccc(-c3nc(-c4ccc(C)cc4)co3)cc2)cc(OC)c1OC,-39
O=C(c1ccnc(N2CCOCC2)c1)N1CCCC1c1ncc2c(n1)CCNC2 (stereo not drawn),-1
COc1ccc2c(c1)c(C(O)CN1CCCC(O)(c3ccc(F)cc3)CC1)c(C)n2C (stereo not drawn),104
COc1ccc2c3c([nH]c2c1)[C@H](CO)N(Cc1nccs1)CC31CCN(C(=O)C2CCCCC2)CC1,-57
O=C(C1CCC1)N1CC2(C1)[C@@H](c1ccccc1)[C@@H](CO)N2Cc1nccs1,-38
Cc1c(S(=O)(=O)NCc2cc(=O)[nH]c(N3CCC(C)CC3)n2)cnn1C,-3
COc1ccc2c3c([nH]c2c1)[C@H](CO)N(C(=O)c1cccnc1)CC31CN(C(=O)Nc2cccc(F)c2)C1,-18
CC(NC(=O)c1ccncc1)c1nc(-c2cccnc2)n[nH]1 (stereo not drawn),25
CCc1nc(N2[C@H](C#N)[C@@H](c3ccccc3-c3ccc(F)cc3)[C@H]2CO)sc1C,-18
COCC(=O)NC1CC2(CCN(CC#N)CC2)Oc2ccccc21 (stereo not drawn),-22
O=S(=O)(NCCc1csc(-c2cccc(F)c2)n1)c1ccccc1Cl,15
Cc1noc(C)c1NC(=O)Nc1ccc2c(c1)CC(=O)N([C@H](C)CO)C[C@H](C)[C@@H](CN(C)Cc1ccc(C(F)(F)F)cc1)O2,7
Cc1ncc(CC(=O)N2CCc3[nH]nc(-c4ccccc4F)c3C2)c(=O)[nH]1,7
CN(C)CCCn1ccnc1-c1ccc(N(C)C)nc1,4
